# Source: PubChem (ICCB-Longwood Screening Facility, Harvard Medical School)
# p53 HeLa: nuclear p53 accumulation, HPV+ cells – imaging, p53-positive nuclei imaging, 24 h, 48 h (AID 1508601); p53-positive nuclei imaging, 48 h; active compounds read high; some inactives read as strong as hits; hit rate 1% among 5,700; p53-positive nuclei, normalised, % at 11 µM unless noted;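 active = mean of two plates above 50% at 24 h or at 48 h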;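 note: HPV-positive HeLa cells with a fluorescent p53 stability reporter; 0% = vehicle and 100% = proteasome inhibitor control; doses worked out from stocks diluted about 900-fold with the highest of each compound shown; many of its hits are not listed in these tables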
# p53 HeLa cells 24 h: further read-out of p53 HeLa, marked with its call; nuclei count, normalised, %; measured here: cell number at 24 h;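 100% = vehicle wells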
# p53 HeLa p53 24 h: recorded beside p53 HeLa, whose call it bears; p53-positive nuclei, normalised, %; measured here: p53 positive nuclei at 24 h;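 0% = vehicle and 100% = positive control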
# p53 HeLa cells 48 h: recorded beside p53 HeLa, whose call it bears; nuclei count, normalised, %; measured here: cell number at 48 h;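 100% = vehicle wells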
# * = called active by the depositor; [ ] = dose if it differs, or a comment.
# Assay codes: A = p53 HeLa; B = p53 HeLa cells 24 h; C = p53 HeLa p53 24 h; D = p53 HeLa cells 48 h
> COc1ccc(-n2nc(C(N)=O)c3c2C(=O)N(c2ccc(N4CCCCC4=O)cc2)CC3)cc1
  A: -0.1[3.7 µM]; B: 101.4; C: -0.3; D: 99.6
> COC(C(=O)N1Cc2[nH]nc(NC(=O)c3ccc(N4CCN(C)CC4)cc3)c2C1)c1ccccc1 (stereo unspecified)
  A: -0.7[3.7 µM]; B: 31.8; C: -0.2; D: 20.9
> Nc1nc(OCc2cc(Br)cs2)c2[nH]cnc2n1
  A: -0.2; B: 122.5; C: 0.0; D: 111.7
> c1cc(NCCc2c[nH]c3ccccc23)cc(Nc2ccncc2)c1
  A: -0.1; B: 91.3; C: -0.1; D: 77.6
> CC(N)C1CCC(C(=O)Nc2ccncc2)CC1 (stereo unspecified)
  A: -0.2; B: 96.0; C: -0.1; D: 101.0
> Cc1nc(C(=O)NCC(=O)O)c(O)c2ccc(Oc3ccccc3)cc12
  A: -0.5[3.7 µM]; B: 103.1; C: -0.1; D: 104.3
> COc1cc2nc(-c3cc(F)ccc3O)nc(NC3CNCC3C(C)(C)O)c2cc1OC (stereo unspecified)
  A: 3.0; B: 31.1; C: 1.4; D: 24.8
> NC(=O)c1cn(Cc2c(F)cccc2F)nn1
  A: -0.2[3.7 µM]; B: 106.0; C: -0.5; D: 103.0
> COCC(=O)NCC=Cc1ccc2ncnc(Nc3ccc(Oc4ccc(C)nc4)c(C)c3)c2c1
  A: 0.0; B: 79.2; C: 0.3; D: 79.6
> Cc1cc(Nc2cc(N3CCN(C)CC3)nc(C=Cc3ccccc3)n2)n[nH]1
  A: -0.6[3.7 µM]; B: 30.6; C: -0.1; D: 20.4
> Cn1c(=O)cc(N2CCCC(N)C2)n(Cc2ccccc2C#N)c1=O (stereo unspecified)
  A: 0.0; B: 111.0; C: -0.1; D: 108.1
> CC1(C)C(O[C@H]2OC(C(=O)O)C(O)C(O)C2O[C@@H]2OC(C(=O)O)C(O)C(O)C2O)CC[C@@]2(C)[C@H]3C(=O)C=C4[C@@H]5C[C@@](C)(C(=O)O)CC[C@]5(C)CC[C@@]4(C)[C@]3(C)CC[C@@H]12 (stereo partly specified)
  A: -0.3[3.7 µM]; B: 117.1; C: -0.6; D: 110.0
> Cn1cc(-c2ccc3c(c2)CCN3C(=O)Cc2cccc(C(F)(F)F)c2)c2c(N)ncnc21
  A: -0.1; B: 102.8; C: -0.1; D: 97.5
> CN(C(=O)CCCOc1ccc2[nH]c(=O)ccc2c1)C1CCCCC1
  A: -0.2; B: 106.9; C: 0.0; D: 103.3
> CC1(C)C(OC2OC(C(=O)O)C(O)C(O)C2OC2OC(C(=O)O)C(O)C(O)C2O)CC[C@@]2(C)[C@H]1CC[C@]1(C)[C@H]2C(=O)C=C2[C@H]3C[C@@](C)(C(=O)O)CC[C@]3(C)CC[C@]21C (stereo partly specified)
  A: -0.3[3.7 µM]; B: 88.3; C: -0.4; D: 95.0
> CN1CCN(C(c2ccccc2)c2ccccc2)CC1
  A: -0.1[3.7 µM]; B: 118.2; C: -0.2; D: 108.7
> Cc1cc(Nc2cc(N3CCN(C)CC3)nc(Sc3ccc(NC(=O)C4CC4)cc3)n2)n[nH]1
  A: 0.6; B: 44.1; C: -0.1; D: 27.1
> CN(C)CCOC(C)(c1ccccc1)c1ccccn1 (stereo unspecified)
  A: -0.1[3.7 µM]; B: 107.5; C: -0.2; D: 108.0
> CCCCNc1ncc(C(=O)NCc2ccc(-n3ccnc3)cc2)c(NC2CCC(O)CC2)n1 (stereo unspecified)
  A: 0.6; B: 76.7; C: 0.0; D: 70.9
> CN(C)C(=O)C(O)C(Cc1ccccc1)NC(=O)c1cc2cc(Cl)ccc2[nH]1 (stereo unspecified)
  A: -0.1[3.7 µM]; B: 115.5; C: -0.2; D: 114.2
> CCn1c(N)c(C(=O)NC)c(=O)c2ccc(C#C[C@@](C)(O)COC)nc21
  A: -0.1[3.7 µM]; B: 98.7; C: -0.5; D: 93.2
> CN1CCC(c2c[nH]c3ccc(NC(=O)c4ccc(F)cc4)cc23)CC1
  A: 0.0; B: 108.5; C: 0.1; D: 103.9
> Cc1cc(Cn2cnc3c2CC(C(=O)O)N(C(=O)C(c2ccccc2)c2ccccc2)C3)ccc1N(C)C (stereo unspecified)
  A: 0.0; B: 114.5; C: -0.1; D: 121.8
> CCOc1ccc(-n2c(C(C)N(Cc3cccnc3)C(=O)Cc3ccc(OC(F)(F)F)cc3)nc3ncccc3c2=O)cc1 (stereo unspecified)
  A: -0.2; B: 110.0; C: -0.1; D: 102.2
> c1cc(OCCN2CCCCC2)cc(-c2n[nH]c3ccc(-c4ncn[nH]4)cc23)c1
  A: 1.1; B: 40.5; C: 0.2; D: 29.6
> CCOC(=O)c1ccc(N)cc1
  A: -0.1[3.7 µM]; B: 108.4; C: -0.2; D: 107.1
> Cc1c(CN2CCN(C(=O)C(C)O)CC2)sc2c(N3CCOCC3)nc(-c3cnc(N)nc3)nc12 (stereo unspecified)
  A: -0.2; B: 84.4; C: 0.0; D: 88.2
> CC(N)c1ccc(C(=O)Nc2ccnc3[nH]ccc23)cc1 (stereo unspecified)
  A: 10.5; B: 69.6; C: 2.4; D: 57.0
> CCN1CCN(Cc2ccc(Nc3ncc(F)c(-c4cc(F)c5nc(C)n(C(C)C)c5c4)n3)nc2)CC1
  A: 43.9; B: 30.8; C: 40.4; D: 19.0
> Cc1cc(NC(=O)c2cccc(NC(=O)C=CCN(C)C)c2)ccc1Nc1nccc(-c2cccnc2)n1
  A: -0.2[3.7 µM]; B: 105.5; C: -0.3; D: 109.5

# Some entries already given, showing only p53 HeLa, p53 HeLa cells 48 h and p53 HeLa p53 24 h.
compound,p53 HeLa,p53 HeLa cells 48 h,p53 HeLa p53 24 h
Cc1cc(Cn2cnc3c2CC(C(=O)O)N(C(=O)C(c2ccccc2)c2ccccc2)C3)ccc1N(C)C (stereo unspecified),0.0,121.8,-0.1
c1cc(OCCN2CCCCC2)cc(-c2n[nH]c3ccc(-c4ncn[nH]4)cc23)c1,1.1,29.6,0.2
Cc1c(CN2CCN(C(=O)C(C)O)CC2)sc2c(N3CCOCC3)nc(-c3cnc(N)nc3)nc12 (stereo unspecified),-0.2,88.2,0.0
CN1CCC(c2c[nH]c3ccc(NC(=O)c4ccc(F)cc4)cc23)CC1,0.0,103.9,0.1

# (next part)
# Assay codes: A = p53 HeLa; B = p53 HeLa cells 24 h; C = p53 HeLa p53 24 h; D = p53 HeLa cells 48 h
> Cc1nc(N)sc1-c1ccnc(Nc2ccc(N3CCOCC3)cc2)n1
  A: -0.2[3.7 µM]; B: 40.5; C: -0.1; D: 28.3
> Cc1ccccc1C(=O)Nc1ccc(C(=O)N2CCCC(O)c3cc(Cl)ccc32)c(C)c1 (stereo unspecified)
  A: 0.0; B: 78.1; C: -0.1; D: 86.2
> CCCNC(C)C(=O)Nc1c(C)csc1C(=O)OC (stereo unspecified)
  A: 0.0[3.7 µM]; B: 112.6; C: -0.2; D: 107.1
> Cc1cnc(NC(=O)Nc2cc(Br)c(C)cc2OCC2CNCCO2)cn1 (stereo unspecified)
  A: 12.4; B: 35.5; C: 1.2; D: 16.9
> COc1ccc(Cn2ccc3ccc(C(=O)NO)cc32)cc1
  A: -0.1; B: 101.4; C: 0.1; D: 95.1
> Oc1ccc(C=Cc2cc(O)cc(O)c2)cc1
  A: 0.2; B: 93.1; C: 0.0; D: 90.1
> CC(C(=O)O)c1ccc(C(=O)c2cccs2)cc1 (stereo unspecified)
  A: -0.2[3.7 µM]; B: 102.2; C: -0.5; D: 98.3
> O=C(Nc1cc2cc[nH]c2cn1)c1ccccc1
  A: 0.1[3.7 µM]; B: 110.1; C: 0.1; D: 99.4
> CCN(CC)CCNC(=O)c1cc(Cl)c(N)cc1OC
  A: -0.1[3.7 µM]; B: 110.7; C: -0.2; D: 99.0
> C=CC(=O)Nc1cccc(Nc2nc(Nc3ccc(N4CCN(C(C)=O)CC4)cc3OC)ncc2C(F)(F)F)c1
  A: -0.1[3.7 µM]; B: 113.7; C: -0.3; D: 102.3
> C#C[C@@]1(O)CC[C@H]2[C@@H]3CCC4=CC(=O)CC[C@@H]4[C@@H]3CC[C@@]21CC
  A: 9.3[3.7 µM]; B: 88.8; C: 0.0; D: 74.1
> CCOC(=O)C(CCc1ccccc1)NC(C)C(=O)N1Cc2ccccc2CC1C(=O)O (stereo unspecified)
  A: 0.0[3.7 µM]; B: 97.7; C: -0.5; D: 101.1
> O=C(Nc1ccc(OC(F)(F)F)cc1)c1sccc1NCc1ccnc2ccccc12
  A: -0.1; B: 82.1; C: 0.0; D: 90.7
> COc1ccc(-c2cc3c(C)nc(N)nc3n(C3CCC(OCCO)CC3)c2=O)cn1 (stereo unspecified)
  A: -0.3[3.7 µM]; B: 62.7; C: -0.2; D: 65.6
> CC(Oc1cc(-n2cnc3ccc(CN4CCN(C)CC4)cc32)sc1C(N)=O)c1ccccc1C(F)(F)F (stereo unspecified)
  A: 1.5; B: 34.1; C: 1.3; D: 19.4
> Cc1[nH]c(C=C2C(=O)Nc3ccc(F)cc32)c(C)c1C(=O)NCCN1CCCC1
  A: -0.1; B: 115.2; C: 0.1; D: 101.2
> O=C(c1ccc(C(=O)N2CCC(N3CCCC3)CC2)c(Nc2ccccc2)c1)N1CCC(N2CCCC2)CC1
  A: -0.7; B: 119.0; C: -0.2; D: 116.4
> O=C(CS(=O)Cc1ccco1)NCC=CCOc1cc(CN2CCCCC2)ccn1 (stereo unspecified)
  A: 0.0[3.7 µM]; B: 102.1; C: -0.2; D: 100.8
> COC(=O)CC1CC(c2ccc(O)cc2)=NO1 (stereo unspecified)
  A: -0.2; B: 99.9; C: 0.0; D: 101.3
> O=C1Cc2c([nH]c3ccc(Br)cc23)-c2ncccc2N1
  A: 0.4[3.7 µM]; B: 75.7; C: -0.3; D: 76.4
> Cc1ccc(F)c(NC(=O)Nc2ccc(-c3cccc4[nH]nc(N)c34)cc2)c1
  A: -0.1; B: 89.0; C: -0.1; D: 91.6
> CCCSc1nc(NC2CC2c2ccc(F)c(F)c2)c2nnn(C3CC(OCCO)C(O)C3O)c2n1 (stereo unspecified)
  A: -0.1; B: 100.4; C: 0.0; D: 114.2
> C#CCC(Cc1cnc2nc(N)nc(N)c2n1)c1ccc(C(=O)NC(CCC(=O)O)C(=O)O)cc1 (stereo unspecified)
  A: 0.2; B: 67.6; C: 0.0; D: 51.9
> CC1CCN(c2cc(N3CCN(C)CC3)ccc2NC(=O)c2cc(C#N)c[nH]2)CC1
  A: 1.3; B: 102.6; C: 1.6; D: 100.8
> CNC(=O)c1cccc(-c2ccc3c(N4CCOCC4C)nc(N4CCOCC4C)nc3n2)c1 (stereo unspecified)
  A: -0.1; B: 76.3; C: 0.0; D: 75.6
> c1ccc(CN(CC2=NCCN2)c2ccccc2)cc1
  A: -0.1[3.7 µM]; B: 111.8; C: -0.3; D: 105.7
> COc1ccccc1N1CCN(CCCNc2cc(=O)n(C)c(=O)n2C)CC1
  A: 0.0[3.7 µM]; B: 116.7; C: -0.5; D: 106.6
> c1ccc(CC2=NCCN2)cc1
  A: 0.0[3.7 µM]; B: 117.0; C: -0.2; D: 109.6
> COc1cc2c(Oc3ccc(NC(=O)C4(C(=O)Nc5ccc(F)cc5)CC4)cc3F)ccnc2cc1OCCCN1CCOCC1
  A: 1.2; B: 39.2; C: 1.1; D: 24.1
> Cc1cc(OCc2nnc(SC3CCCC3)n2-c2cccnc2)ccc1-c1ccc(S(C)(=O)=O)cc1
  A: 57.1*; B: 53.9*; C: 46.4*; D: 36.2*
> C1CCC(C(CC2CCCCN2)C2CCCCC2)CC1 (stereo unspecified)
  A: 0.6; B: 76.5; C: 0.9; D: 85.6
> NC(=O)c1cccc(-c2cc(Nc3ccc(OC(F)(F)F)cc3)ncn2)c1
  A: 0.3; B: 95.1; C: 0.4; D: 93.5
> Cc1cc(Nc2ncc(Cl)c(Nc3ccccc3S(=O)(=O)C(C)C)n2)c(OC(C)C)cc1C1CCNCC1
  A: 0.8; B: 32.9; C: 1.8; D: 24.8
> O=C1c2c(O)cccc2[C@H]([C@@H]2OC(CO)C(O)C(O)C2O)c2cc(CO)cc(O)c21 (stereo partly specified)
  A: -0.2[3.7 µM]; B: 95.3; C: -0.3; D: 96.7
> CN1CCN(CCOc2cc(OC3CCOCC3)c3c(Nc4c(Cl)ccc5c4OCO5)ncnc3c2)CC1
  A: -0.3; B: 57.2; C: 0.1; D: 37.4
> CNC(=O)CN1CCC(Oc2cc3c(Nc4cccc(Cl)c4F)ncnc3cc2OC)CC1
  A: 0.0[3.7 µM]; B: 110.0; C: 5.4; D: 112.0
> Cc1[nH]nc2ccc(-c3cncc(OCC(N)Cc4ccccc4)c3)cc12 (stereo unspecified)
  A: 36.4[3.7 µM]; B: 47.3; C: 4.7; D: 30.4
> CCn1cc(-c2ccnc3[nH]c(-c4cccc(CN(C)C)c4)cc23)c(-c2ccc(NC(=O)N(C)C)cc2)n1
  A: 0.0; B: 45.5; C: 0.0; D: 21.5
> COc1ccc(C(=O)CC(=O)c2ccc(C(C)(C)C)cc2)cc1
  A: -0.1[3.7 µM]; B: 104.8; C: -0.1; D: 109.8
> COc1ccc(C=CC(=O)Nc2ccccc2C(=O)O)cc1OC
  A: 1.1[3.7 µM]; B: 105.9; C: 1.6; D: 101.0
> CCn1c(C(=O)N(C2CC2)C2CC2)cc2c3c(ncn3C)c(Nc3cc(C)n(C)n3)nc21
  A: 0.0; B: 96.8; C: -0.1; D: 96.3
> Cn1cc(-c2ccc3nnc(C(F)(F)c4ccc5ncccc5c4)n3n2)cn1
  A: 0.0; B: 102.3; C: 0.1; D: 99.1
> O=C(Cc1ccc(-c2ccc(OCCN3CCOCC3)cc2)cn1)NCc1ccccc1
  A: 4.6; B: 39.3; C: 1.3; D: 26.9

# These rows are one share of the data (hit frequency here may not be typical).
